# 2A StopGo – High Throughput Screening for Foot and Mouth Disease Virus Antivirals | human cells with a luciferase reporter of 2A StopGo recoding; control for the full effect not named in the record | Potency, µM (series often up to 57.9 µM), for inactives: top-dose signal change, negative = less light | actives 1.2% (n = 410,000); active = well fitted falling curve with a large enough effect; inconclusive = small, poorly fitted or top-dose-only effect; inactive = no such curve, though single readings can be large or run the other way; tested in HEK293T cells; further: on the % scale 0 is the no-effect control and ±100 the full control effect; nearly all actives have a fitted effect of over 45% in size; luciferase light after 4 h
# RE007 growth inh – qHTS Assay for Inhibitors of the HIV-1 protein Vpr; S. pombe RE007 Vpr strain, BacTiter-Glo ATP luminescence, 24 h; control for the full effect not named in the record; Potency, µM (doses to about 92.2 µM), for inactives: top-dose activity change, negative = less growth; actives 0.21% (n = 360,000); AID 651644, 2012; active = well fitted falling curve with a large enough effect; inconclusive = small, poorly fitted or top-dose-only effect; inactive = no such curve, though single readings can be large or run the other way;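 further: on the % scale 0 is the no-effect control and ±100 the full control effect; nearly all actives have a fitted effect of over 50% in size; the assay follows cell death caused by Vpr and the record does not say whether a fall means rescue or toxicity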
#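 Fission yeast RE007 carrying one integrated HIV-1 vpr copy, seeded at OD 0.01 in PMG+AL medium with 23 nL pinned compound. Grown 24 h at 30 degrees; viability read by BacTiter-Glo luminescence after 5 min.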
# Cruzain inh noDet – qHTS Assay for Promiscuous and Specific Inhibitors of Cruzain (without detergent) | purified cruzain, Z-FR-AMC fluorescence, no detergent | Potency, µM, for inactives: max response, negative = inhibition, most hits filed as inhibitors | actives 2.3% (n = 200,000);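 further: plate controls were enzyme without inhibitor for no effect and buffer without enzyme for full effect; nearly all actives have a fitted effect of over 40% in size; top concentration of the series not given in the record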
# Target sequence (P25779 123-467 limits assumed): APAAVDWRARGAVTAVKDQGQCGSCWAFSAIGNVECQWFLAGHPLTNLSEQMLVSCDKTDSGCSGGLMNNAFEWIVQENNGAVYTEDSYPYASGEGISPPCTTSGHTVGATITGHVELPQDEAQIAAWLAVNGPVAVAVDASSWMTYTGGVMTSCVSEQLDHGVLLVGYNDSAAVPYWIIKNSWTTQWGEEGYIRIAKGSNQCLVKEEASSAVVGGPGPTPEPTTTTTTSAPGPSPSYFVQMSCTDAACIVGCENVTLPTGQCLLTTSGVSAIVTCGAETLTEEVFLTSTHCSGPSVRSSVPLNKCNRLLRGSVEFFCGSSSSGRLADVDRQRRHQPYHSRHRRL
#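 Detergent-free condition (0.00005% Triton X-100) in acetate buffer pH 5.5 with DTT. 1.5 nM enzyme and compound were pre-mixed 15 min, then 2 uM Z-FR-AMC substrate added; reaction progress from fluorescence change between first and third reads (60 s).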
# Lassa entry inh – qHTS for Inhibitors of binding or entry into cells for Lassa Virus; Lassa virus pseudotype entry inhibition, cell reporter; control for the full effect not named in the record; Potency, µM (highest dose often 37.9 µM), for the others: at the top dose activity change, negative = inhibition, actives largely listed as inhibitors; actives 1.2% (n = 300,000); active means well fitted inhibition curve with a large enough effect; inconclusive means small, poorly fitted or top-dose-only effect, or effect the other way; inactive means flat fitted curve, though single readings scatter; tested in HEK293 cells; further: on the % scale 0 is the no-effect control and ±100 the full control effect; nearly all actives have a fitted effect of over 50% in size; luciferase read-out
# MARV entry inh – qHTS for inhibitors of binding or entry into cells for Marburg Virus; Marburg virus pseudotyped entry inhibition, cell reporter; control for the full effect not named in the record; about a third of the inactives were read at about 46 µM; Potency, µM (titrated, usually from 37.8 µM), without a hit: top-dose activity change, negative = inhibition, usual class: inhibitors; actives 1.8% (n = 300,000); AID 540276, 2011; active = well fitted inhibition curve with a large enough effect; inconclusive = small, poorly fitted or top-dose-only effect, or effect the other way; inactive = flat fitted curve, though single readings scatter; tested in HEK293 cells; about a fifth of its hits are not listed in these tables; further: on the % scale 0 is the no-effect control and ±100 the full control effect; luciferase read-out
# NS1 inh – qHTS Assay for Inhibitors of Influenza NS1 Protein Function. S. cerevisiae slowed by influenza A NS1, growth recovery by OD600. Potency, µM (doses to about 46.1 µM), for inactives: at the highest dose activity, positive = more growth. AID 2326, 2010. actives 0.4% (n = 270,000); active means well fitted rising curve with a large enough effect; inconclusive means small, poorly fitted or top-dose-only effect; inactive means no such curve, though single readings can be large or run the other way; further: nearly all actives have a fitted effect of over 50% in size
#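 Read-out: OD600 growth recovery of NS1-expressing budding yeast. Cells grown overnight at 30C in -URA glucose medium, washed, resuspended and diluted 1:100 in 2% galactose assay medium, pH 6.0. Same strain lacking NS1 served as positive control.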
# Cruzain Triton – qHTS Assay for Promiscuous and Specific Inhibitors of Cruzain (with detergent); actives 0.43% (n = 200,000); purified cruzain, Z-FR-AMC fluorescence, 0.01% Triton; Potency, µM, without a hit: max response, negative = inhibition, usual class: inhibitors; Cruzipain (Trypanosoma cruzi), P25779; AID 1478, 2009;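 further: plate controls were neutral wells for no effect and buffer without enzyme for full effect; nearly all actives have a fitted effect of over 40% in size; top concentration of the series not given in the record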
#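 Enzyme 1.5 nM, Z-FR-AMC 2 uM, NaOAc 100 mM pH 5.5, DTT 5 mM, Triton X-100 0.01%; 15 min RT compound preincubation; kinetic ex360/em450, 60 s delta.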
# SARS PLpro yeast – qHTS of Yeast-based Assay for SARS-CoV PLP; S. cerevisiae expressing SARS-CoV PLpro, growth rescue; control for the full effect not named in the record; Potency, µM (top dose mostly 32.9 µM), without a hit: at the top dose activity, positive = growth rescue; actives 0.19% (n = 330,000); AID 485353, 2010; active means well fitted rising curve with a large enough effect; inconclusive means small, poorly fitted or top-dose-only effect; inactive means no such curve, though single readings can be large or run the other way; further: 0% is about no effect; nearly all actives have a fitted effect of over 55% in size; growth read by luminescence after 48 h
# * hit, by the source's call; ? = inconclusive; · = no result given; & = joins results of further samples; [ ] = another dose, or the depositor's remark. Unless noted, the call rests on the fitted dose curve; in most records, active means well fitted curve in the direction sought with a large enough effect; inconclusive means small, poorly fitted or top-dose-only effect, or another doubt; inactive means no such curve, though single readings can be large; an effect the other way counts as inactive or inconclusive. Potency means the concentration at half of the fitted maximal effect. An unsorted share of the library (roughly 4.7% active in at least one column).
compound,2A StopGo,RE007 growth inh,Cruzain inh noDet,Lassa entry inh,MARV entry inh,NS1 inh,Cruzain Triton,SARS PLpro yeast
Cc1ccccc1C(=O)Nc1cccc(C(=O)OCc2cc(=O)n3c(C)csc3n2)c1,-7%,·,7%,20%[46.1 µM],·,·,-0.3%,·
COc1cc2c3c(c1OC)C1(C=CC(=O)C=C1)CC3N(C(C)=O)CC2 (stereo not drawn),-5%,-11%,-6%,?,14%,16%,0.6%,17%
CCS(=O)(=O)N1CCN(c2cc3c(cc2[N+](=O)[O-])n(C)c(=O)n3C)CC1,?,-18%,·,-6%,-20%[14.2 µM],·,·,1%
O=[N+]([O-])c1ccc(-c2cnc(SCc3ccccc3Cl)[nH]2)cc1,?,-9%,?,-4%,-13%,-189%,-5.2%,-35%
Cc1ccc(-c2nc(C(=O)NCCCN3CCOCC3)cc3c2[nH]c2ccccc23)cc1,-26%,-6%,·,·,·,-8%,·,-7%
COC(=O)c1sc(N)nc1C(C)(C)C,-22%,14%,4%,-23%,3%[46.1 µM],4%,-6.2%,-4%
CCOc1cc(C(=O)OCC(=O)Nc2ccc(SC(F)F)cc2)cc(OCC)c1OCC,-5%,4%,-19%,?,?,10%,-6.5%,27%
CCCCn1c(O)c(N=NC(=O)Cn2c(C(F)(F)F)nc3ccccc32)c2ccccc21,-22%,-7%,-1%,16%,0%,6%,-2.6%,1%
CC1=CN2C(=NC(=O)CC2(C)C(=O)N(CC(=O)NC2CCCC2)Cc2ccc(Cl)cc2)C=C1 (stereo not drawn),-9%,-19%,·,-6%,?,3%,·,0%
CCOC(=O)c1nnn(-c2nonc2N)c1CN(CC)CC,0%,-3%,1%,3%,4%,-11%,3.0%,24%
O=C(O)c1ccc(NS(=O)(=O)Cc2ccc(Cl)c(Cl)c2)cc1,7%,29%,·,?,-4%,·,·,·
CC(=O)N1CCN(C(C)=O)c2ccccc21,-11%,-13%,·,17%,15%,·,·,·
COc1cc(C(=O)OCCCOC(=O)c2cc(OC)c(OC)c(OC)c2)cc(OC)c1OC,?,2%,·,-6%,-2%,-36%,·,?
CCC1=C(OC(=O)N(CC)CC)N2C(=O)OC(=NCC3CC3)[C@]2(C)[C@H]2C1=CC[C@H]1C(=O)N(CC)C(=O)[C@H]12,23%,1%,?,·,·,6%,0.1%,-2%
Cc1ccc(OCC(=O)Nc2ccc(S(=O)(=O)N3CCOCC3)cc2)c([N+](=O)[O-])n1,-8%,-1%,·,12%,-9%[46.1 µM],·,·,5%
O=C(/C=C/c1cccc([N+](=O)[O-])c1)NCCN1CCOCC1,·,-9%,8%,-4%,0%,15%,0.0%,5%
CC(=O)N/N=C(\C)c1cccc(NC(=O)c2cccs2)c1,27%,-7%,-12%,11%,-2%,-3%,-3.1%,-20%
CCOC(=O)C1(C(F)(F)F)N=C(C(F)(F)F)Nc2ccc(F)cc21 (stereo not drawn),0%,-5%,2%,-7%,?,22%,-3.7%,5%
CC(C)CN1C(=O)c2ccc(C(=O)Nc3ccccn3)cc2C1=O,21%,-8%,4%,15%,18%&18%,-2%,0.6%,-4%
CC(C)n1c(SCC(=O)Nc2nncs2)nnc1-c1ccco1,-15%,2%,·,12%,-7%&-7%,18%,·,?
O=C(NNC(=O)C1C2C=CC(C2)C1C(=O)O)c1ccccc1O (stereo not drawn),6%,0%,·,10%[46.1 µM],8%[46.1 µM],-5%,·,5%
COc1ccc(NC(=O)C2CCCN(S(=O)(=O)c3c(C)n[nH]c3C)C2)cc1OC (stereo not drawn),-29%&0%,15%,-7%,-10%[46.1 µM],-16%&-16%[46.1 µM],·,0.6%,3%
CC(C)NC(=O)NC(=O)COC(=O)c1ncc(Cl)c(Cl)c1Cl,-7%,0%,·,27%[46.1 µM],-2%[46.1 µM],·,·,-1%
Cc1cccc(C(=O)N[C@H](C(=O)Nc2nc3ccc(S(C)(=O)=O)cc3s2)C(C)C)c1,-20%,6%,·,-23%,-29%,-1%,·,1%
CC(=O)Nc1ccc2c(c1)nc1n2CCSC1,10%,-14%,-3%,3%,3%,2%,1.8%,-8%
COc1ccc(NC(=O)C(Cc2ccccc2)NS(=O)(=O)c2ccc(Br)s2)cc1OC (stereo not drawn),16%,·,-3%,-28%[46.1 µM],3%[46.1 µM],·,-4.9%,·
COc1cccc(C(=O)Nc2ccc(F)c(F)c2F)c1,37%[activator],-30%,-2%,13%,?,-10%,7.3%,4%
CC(C)c1ccc(C2(C)NC(=O)N(CC(=O)NC3(C#N)CCCC3)C2=O)cc1 (stereo not drawn),-1%,3%,·,18%,?,·,·,2%
O=C(CC(O)(c1ccccc1)C(F)(F)F)c1cccs1 (stereo not drawn),·,-15%,-2%,5%,12%,8%,-6.7%,6%
CC(C)CC(C(=O)NC1CCCC1)N(Cc1cccs1)C(=O)c1snc(C(N)=O)c1N (stereo not drawn),-31%,3%,11%,4%,-11%,6%,-8.0%,5%
CCCC(=Nc1ccc(N)cc1)C1=C(O)C(C(=O)OC)C(C)(C)CC1=O (stereo not drawn),-4%,-10%,-4%,?,-5%,7%,-4.5%,-3%
CC1(C)Cc2c(ccc3ccccc23)C(NNC(=O)c2cccnc2)=N1,0%,13%,-16%,6%,22%,13%,-1.2%,1%
C=CC[N+](C)(C)CCCNC(=O)/C=N/O,4%,-7%,-1%,?,?,?,-0.8%,9%
CC[n+]1c(/C=C/N(C)c2ccccc2)oc2ccc(F)cc21,-23%,-30%,-6%,?,?,3%,-14%,-5%
COc1ccc(-c2c(C(C)=O)c(C)nc3sc4c(=N)n(N)cnc4c23)cc1,-4%,-10%,-10%,?,-16%,7%,-5.2%,-13%
O=C(CSc1nccc(=O)[nH]1)c1c[nH]c2ccccc12,15%,-13%,·,·,·,3%,·,1%
CSc1cccc(NC(=S)N(CCN(C)C)C(C)c2ccncc2)c1 (stereo not drawn),44%[activator],-20%,·,·,·,-44%,·,0%
COc1cc(OC)cc(C(=O)NC2CCN(C(=O)N3c4ccccc4Sc4ccccc43)CC2)c1,·,-12%,?,-24%,?,?,-5.1%,-6%
COc1ccc(OC)c(S(=O)(=O)NNC(=S)Nc2ccc3c(c2)OCO3)c1,60%[activator],-12%,·,22%,22%,4%,·,3%
COC(=O)c1ccc(-n2c(/C=C\c3cccc(Br)c3)nc3ccccc3c2=O)cc1,-20%,·,-3%,14%[46.1 µM],·,·,-1.6%,·
Cc1ccc(Cn2ncc3c(N4CCN(CC#N)CC4)ncnc32)cc1,32µM*,10%,·,-24%,?,-5%,·,-2%
CCOC(=O)c1ccccc1NC(=O)CSc1nc2ccccc2c(=O)[nH]1,-28%,0%,·,5%,-4%[46.1 µM],4%,·,1%
CC(O)CNc1ncnc2nc[nH]c12 (stereo not drawn),-5%,-14%,8%,-5%,7%,2%,2.7%,-1%
O=C(/C=C/c1ccc(O)cc1)c1ccccc1,-2%,50µM*,·,-20%[46.1 µM],?,-58%,·,-2%
Cc1ccc(C(=O)C2CCN(C(=S)NCCCOC(C)C)CC2)cc1,10%,18%,·,·,·,-18%,·,-4%
COc1ccc(NC(=O)C(OC)c2ccccc2)cc1Cl (stereo not drawn),8%,-5%,0%,-14%,?,-1%,-3.3%,14%
O=C(CCS(=O)(=O)c1nc(-c2ccc3c(c2)OCO3)cc(C(F)(F)F)n1)Nc1ccccc1C(F)(F)F,-14%,·,?,23%[46.1 µM],-29%[46.1 µM],·,-29%,·
CCCn1c(N)c(C(=O)CN2CCN(S(=O)(=O)c3cccs3)CC2)c(=O)[nH]c1=O,-16%,-16%,-1%,-23%,?,-1%,-3.6%,0%
O=C(Nc1ccccc1[N+](=O)[O-])C1(c2ccccc2)CCOCC1,-8%,-7%,·,2%,?,-8%,·,1%
Cc1ccc(Cn2c(C)nc3c(c2=O)c2nc4ccccc4nc2n3Cc2ccco2)cc1,?,4%,-4%,-16%,1%,4.5µM*,-11%,-6%
O=C(NC(=S)Nc1cccnc1)c1cc2ccccc2o1,67%[activator],-8%,-2%,?,?,8%,-3.5%,-12%
Cn1c(SCC(=O)N2CCCC2=O)nc2ccccc2c1=O,-25%,-3%,·,6%,-2%,·,·,2%
CC1CCCC2(C1)NC(=S)c1c(sc3c1CCCC3)N2 (stereo not drawn),-24%,?,?,9%,7%,1%,-15%,-1%
CCOC(=O)C1CN(S(=O)(=O)c2ccc(C)cc2)C1,-5%,-12%,0%,14%,?,0%,2.8%,-2%
CCOc1ccc(C(=O)NCc2cccnc2)cc1,·,-9%,1%,-3%,11%,-32%,0.9%,1%
O=C(/C=C\c1ccccc1)NC1CC(=O)N(c2ccccc2)C1 (stereo not drawn),-12%,·,1%,3%[46.1 µM],·,·,-2.4%,·
Cc1c(/C=C(\C#N)C(=O)Nc2cccc(Cl)c2)c2ccccc2n1Cc1ccccc1,?,·,4µM*,-14%[46.1 µM],·,·,-4.2%,·
CC1=N/C(=C\c2ccc([N+](=O)[O-])cc2)C(=O)N1c1ccc(F)cc1F,-5%,28%,·,-24%[46.1 µM],?,2%,·,2%
COCCSc1ccccc1C(=O)Nc1ccc(Cl)cc1,7%,?,·,7%,-18%,-7%,·,0%

# Screens as filed in PubChem.
